D2 agonist = agonists of human D2 dopamine receptor (beta-arrestin). P14416. DiscoveRx PathHunter D2 beta-arrestin, luminescence, 90 min; 100% = 57 uM dopamine signal. activation, % (test concentration not listed). 0.084% of 360,000 active; in the data active = activation above about 40%; inconclusive = about 15% to 40%; inactive = below about 15%; also: compound concentration not given in the record; the text of the record calls up to 30% inactive
Target sequence (P14416 whole entry, looked up): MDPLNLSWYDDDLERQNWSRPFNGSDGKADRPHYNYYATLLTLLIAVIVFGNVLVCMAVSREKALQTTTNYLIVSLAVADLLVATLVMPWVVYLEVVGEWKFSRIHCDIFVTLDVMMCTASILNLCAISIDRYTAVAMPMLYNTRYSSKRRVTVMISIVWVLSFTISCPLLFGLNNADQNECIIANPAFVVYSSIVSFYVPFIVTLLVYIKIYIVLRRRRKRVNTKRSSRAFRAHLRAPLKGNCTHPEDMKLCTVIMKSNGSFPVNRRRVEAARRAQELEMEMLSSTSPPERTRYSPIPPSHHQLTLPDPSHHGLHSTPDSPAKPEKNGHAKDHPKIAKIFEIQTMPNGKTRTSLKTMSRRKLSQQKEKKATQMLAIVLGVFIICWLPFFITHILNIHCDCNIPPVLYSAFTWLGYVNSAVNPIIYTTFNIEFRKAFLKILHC
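Agonist mode: compounds alone added to overnight-plated D2 PathHunter cells for 90 min at 37 C, with 57 uM final dopamine (EC100) defining full response. Beta-arrestin recruitment detected by chemiluminescent reagent, read after 1 h at ambient temperature.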
CtBP-E1A blk = inhibitors of CtBP/E1A interaction. AlphaScreen GST-E1A/His-CtBP binding, 1536-well; stronger effect = lower value; control for the full effect not named in the record. activity change, % (no concentration beside the values). 0.49% of 340,000 active; in the data active means activity change below about -65%; inconclusive means about -30% to -65%; inactive means above about -30%; also: % is scaled to controls: 0 for no effect and ±100 for the full control effect; compound concentration not given in the record
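Protein mix (5X: 125 nM each GST-E1A, His-CtBP) was incubated with pinned compound 2 h at 37 deg C in dark, in 50 mM Tris pH 8.0 buffer with 300 mM NaCl. Glutathione donor and nickel acceptor beads followed; AlphaScreen signal read after 1 h.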
TRPML1 inh = human mucolipin-1 channel inhibition; Q9GZU1; TRPML1-inducible cells, Ca2+ dye fluorescence, FDSS; stronger effect = lower value; inhibition of EC80 agonist-evoked calcium signal; activity change, negative = inhibition, % (test concentration not listed); 0.02% of 390,000 active; AID 624415; in the data active means activity change below about -50%; inconclusive means about -30% to -50%; inactive means above about -30%;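 also: stimulus is agonist 54-4 at its EC80 concentration; % is scaled to controls: 0 for no effect and ±100 for the full control effect; compound concentration not given in the record; the text of the record puts the active cut at -80%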
Target sequence (Q9GZU1 whole entry, looked up): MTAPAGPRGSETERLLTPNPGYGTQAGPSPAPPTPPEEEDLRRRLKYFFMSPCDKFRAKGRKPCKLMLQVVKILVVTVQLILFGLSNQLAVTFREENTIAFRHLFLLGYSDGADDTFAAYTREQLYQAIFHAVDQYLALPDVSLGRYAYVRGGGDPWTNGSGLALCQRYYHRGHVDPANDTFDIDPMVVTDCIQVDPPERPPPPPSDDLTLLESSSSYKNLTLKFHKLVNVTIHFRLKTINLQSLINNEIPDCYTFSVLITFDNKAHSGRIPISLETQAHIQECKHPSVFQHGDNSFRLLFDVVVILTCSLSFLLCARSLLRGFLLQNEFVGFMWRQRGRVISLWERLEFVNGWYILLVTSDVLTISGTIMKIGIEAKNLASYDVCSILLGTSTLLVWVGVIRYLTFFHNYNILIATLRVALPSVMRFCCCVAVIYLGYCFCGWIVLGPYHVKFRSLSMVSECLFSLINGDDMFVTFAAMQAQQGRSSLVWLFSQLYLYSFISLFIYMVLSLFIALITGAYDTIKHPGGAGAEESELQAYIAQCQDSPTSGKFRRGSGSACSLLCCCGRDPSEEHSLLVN
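Calcium fluorescence in TRPML1-DL cells induced overnight with Tet: a 110 s read after compound pin addition, then a 110 s antagonist read after challenge with 54-4 at 4 uM final (EC80).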
Six1-Eya2 blk = inhibitors of human Six1/Eya2 interaction. AlphaScreen GST-Six1/His-Eya2 binding, biochemical; stronger effect = lower value; control for the full effect not named in the record. activity change, % (no concentration beside the values). 0.56% of 360,000 active. AID 651725; in the data active = activity change below about -65%; inconclusive = about -30% to -65%; inactive = above about -30%; also: % is scaled to controls: 0 for no effect and ±100 for the full control effect; compound concentration not given in the record
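AlphaScreen luminescence read after one hour at 37 °C in darkness. Pin-transferred compounds met GST-Six1 and His-Eya2 protein (5X stock 250 nM/500 nM) plus glutathione donor and Ni-chelate acceptor beads (5X, 50 ug/mL).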
PINK1 modulator = PINK1 expression modulation | PINK1 immunofluorescence, high-content cytometry, 24 h | Potency, µM (series often up to 76.6 µM), for the others: top-dose activation (PINK1 increase), usual class: activators | 0.2% of 410,000 active | AID 624263; active = well fitted activation curve with a large enough effect; inconclusive = small, poorly fitted or top-dose-only effect; inactive = flat fitted curve, though single readings scatter; cell line not stated here;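 also: potency is read from the fitted curve at half-maximal effect; % of control where 0% means no effect; nearly all actives have a fitted effect of over 65% in size; a mitochondrial uncoupler was the plate control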
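Cells are seeded, rested 12 hours, then given compound at five concentrations or DMSO for 24 hours. After fixation, blocking and antibody staining, PINK1 amount and mitochondrial localization are scored; CCCP serves as control.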
TRPML1 agonist = human mucolipin-1 channel agonism. TRPML1-expressing cells, Ca2+ dye fluorescence, FDSS; host cell line not named in the record; reference of the full effect not given here. Q9GZU1. activation, % (no concentration beside the values). 0.12% of 410,000 active. AID 624414; in the data active = activation above about 50%; inconclusive = about 30% to 50%; inactive = below about 30%; also: 0% is about no effect; the text of the record puts the active cut at 80%
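Tet-induced TRPML1-DL cells, 1,500 per well, cultured overnight, were loaded with a no-wash Ca2+ dye for 45–90 min. Calcium fluorescence was recorded on the FDSS for 110 s after compound addition, before the EC80 agonist (4 uM 54-4) was added.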
Starred values were filed as active, the others as inactive; ? = inconclusive; . = not tested or not shown; & = joins results of further samples; [ ] = dose if it differs, or a comment.

Order of values: D2 agonist	CtBP-E1A blk	PINK1 modulator	TRPML1 agonist	Six1-Eya2 blk	TRPML1 inh
- CC(=O)Nc1ccc(SCC(=O)c2c(N)n(Cc3ccccc3)c(=O)n(C)c2=O)cc1
 : 2.4	-5.5	0.7%	0.2	-0.3	20.1
- C=CCNC(=O)COC(=O)C1CCN(S(=O)(=O)c2ccc3c(c2)OCCO3)CC1
 : -5.0	11.5	1.3%	-0.4	-6.6	-3.4
- CCC(=O)N1CCCc2cc(S(=O)(=O)N3CCC(C(=O)Nc4ccc(F)c(F)c4)CC3)ccc21
 : .	.	1.3%	-0.6	.	-5.6
- CCCCC(=O)Nc1ccc(C(=O)OCc2cc(=O)n3ccsc3n2)cc1
 : .	.	-1.3%	-0.4	.	6.3
- O=C(COc1ccc(Br)cc1)N1CCc2ccccc21
 : -4.7	12.8	3.4%	0.2	7.1	-5.5
- CN(CC(=O)Nc1cccc(F)c1)C(=O)C1CCC(C(=O)N(C)CC(=O)Nc2cccc(F)c2)CC1 (configuration not stated)
 : -1.7	-8.9	0.6%	2.3	4.9	-0.7
- COc1ccc(N(CC2CO2)S(=O)(=O)c2ccccc2)cc1 (configuration not stated)
 : -7.4	0.0	-2.4%	0.5	-6.4	5.5
- CCNC(=O)c1c(O)c2cccc3c2n(c1=O)CC3
 : -2.7	-2.0	-1.2%	-0.6	-5.6	-1.7
- NC(=O)C1(NC(=O)[C@@H]2CC3(CC(c4cccc(NC(=O)c5cc([N+](=O)[O-])cc([N+](=O)[O-])c5)c4)=NO3)CN2C(=O)c2ccccc2)CC1 (some centres not stated)
 : 10.2	-9.1	0.3%	-1.0	-17.2	-9.8
- COc1ccc(S(=O)(=O)N2CCN(C(=O)Cc3cccs3)CC2)cc1
 : -0.6	.	0.7%	0.6	6.4	-16.6
- CCCc1c(C(=O)N/N=C/c2ccoc2)nnn1-c1nonc1N
 : -3.0	-5.4	0.2%	-0.7	0.0	7.6
- Cc1ccc(C2=NN(C(=O)CN3C(=O)c4ccccc4S3(=O)=O)C(c3ccco3)C2)cc1 (configuration not stated)
 : -6.9	-6.2	-1.1%	1.1	-4.4	34.7
- CC(C)CCNC(=O)c1ccc2nc(CCc3ccccc3)oc2c1
 : .	.	1.0%	0.3	.	12.1
- O=C(O)c1ccc2c(c1)C(=O)N(c1cccc(S(=O)(=O)Nc3cccc(C(F)(F)F)c3)c1)C2=O
 : -3.2	-2.0	4.1%	-0.6	-7.2	-9.6
- COc1cccc(C(=O)NC(C)c2ccc(-c3ccccc3)cc2)c1OC (configuration not stated)
 : 0.5	10.7	0.0%	4.7	3.5	-8.7
- COc1ccc(NC2=C(Cl)C(=O)N(c3ccccc3)C2=O)c(OC)c1
 : -2.7	0.4	-1.2%	0.7	-15.2	29.6
- COc1cc(C2NC(=S)NC(O)(C(F)(F)F)C2C(=O)c2cccs2)cc(OC)c1O (configuration not stated)
 : -5.3	0.1	0.9%	0.0	22.2	5.5
- Cc1[nH]n(-c2ccc(Cl)cc2)c(=O)c1/C=N/c1nnc(-c2ccccc2)s1
 : -2.1	0.2	0.8%	0.0	1.8	36.2
- CNC(=O)c1sc(Nc2ccc(OCc3ccccc3)cc2)nc1C
 : 9.2	-3.3	5.6%	1.3	-13.4	13.3
- Cc1ccc(S(=O)(=O)NC(=O)c2cc(C)n(-c3ccc(N(C)C)cc3)c2C)cc1
 : -4.3	.	0.3%	-0.9	-3.1	2.4
- COc1ccc(-c2cc3nc(C)c(CCC(=O)NCCc4ccc(Cl)cc4)c(C)n3n2)c(OC)c1
 : .	.	3.4%	-0.9	.	30.0
- Cc1cc(C)nc(Nc2ccccc2Cl)n1
 : -2.3	14.3	1.6%	0.1	17.2	-8.9
- COc1ccc(C)cc1NC(=O)CCc1c(C)nn(-c2ccc(N3CCCCC3)nn2)c1C
 : 7.2	-3.7	2.1%&3.2%	1.7&0.5	-2.7	0.4&33.7
- CC(C)n1c(NCCc2ccccc2)nc2c1c(=O)n(C)c(=O)n2C
 : 3.3	1.7	-0.1%	1.3	3.0	8.0
- COc1ccccc1NC(=O)c1cnc2n(c1=O)CCS2
 : -1.5	5.3	1.0%	0.9	2.1	6.1
- O=C(Nc1nc(-c2ccc(Br)cc2)ns1)c1ccc(F)cc1
 : .	.	2.4%	1.2	.	11.8
- CC1CCCN(C(=O)Cn2nnc(-c3ccccc3F)n2)C1 (configuration not stated)
 : -1.0	9.3	0.5%	-0.4	-0.4	-5.8
- COc1ccc(N2CCN(S(=O)(=O)CCNC(=O)/C=C/c3ccc4c(c3)OCO4)CC2)cc1
 : 0.1	-3.1	6.0%	-0.2	-10.2	-9.6
- COc1ccc(NC(=O)c2ccc3c(=O)n(-c4ccc(OC)cc4OC)c(=S)[nH]c3c2)c(OC)c1
 : -2.2	-2.8	4.1%	1.4	-13.6	2.4
- CC(C)c1ccc(OCC(O)Cn2cnc3ccccc32)cc1 (configuration not stated)
 : -2.4	4.1	1.2%	-0.3	3.7	8.6
- Cc1no[n+]([O-])c1COc1ccc(/C=C(\C#N)C(N)=O)cc1
 : 1.4	-21.7	1.4%	4.5	0.9	4.6
- COc1c(Cl)cc(C(=O)Nc2ccccc2C(=O)O)cc1Cl
 : 1.3	-4.2	1.8%[38.3 µM]	0.0	-2.6	45.0
- CC(C)COc1cccc(C(=O)NNC(=O)C2COc3ccccc3O2)c1 (configuration not stated)
 : -0.7	-13.0	0.2%	2.2	0.4	1.6
- CCOc1ccc(-n2c(SCC(=O)OC)nc3sc4c(c3c2=O)CCN(C)C4)cc1
 : -0.5	-17.0	-1.3%	0.6	-5.6	-1.7
- O=C(Nc1cccc(C(=O)O)c1)/C(=C\c1ccccc1)NC(=O)c1ccccc1Cl
 : 0.0	3.0	1.9%[38.3 µM]	0.3	2.5	-14.1
- CCN(CC)c1cc(C)c2cc(NC(=O)/C=C/c3ccccc3OC(C)C)ccc2n1
 : .	.	2.5%	0.4	.	6.7
- N#Cc1c(-c2ccccc2)nc(SCc2ccc(Cl)cc2)[nH]c1=O
 : -0.3	0.0	1.0%	0.4	-5.8	-0.1
- CC1CCC(N(CCCN)Cc2ccco2)CC1C (configuration not stated)
 : -1.9	-0.7	6.4%	0.0	-6.9	3.2
- O=C(N/N=C/c1cccc2ccccc12)c1cc(C2CC2)[nH]n1
 : 0.2	.	1.3%	-0.2	-1.8	-12.3
- COc1ccc(NC(=O)c2cccnc2)cc1OCC(C)C
 : 1.5	1.1	-0.4%	0.3	9.0	25.8
- O=C1CCCC(O)=C1N=Nc1cccc(S(=O)(=O)N2CCOCC2)c1
 : -0.4	-4.7	0.7%	0.6	-3.2	-3.3
- CC1(C(=O)NCCC(F)(F)F)Cc2c(-c3ccccc3)ccnc2O1 (configuration not stated)
 : -4.1	2.2	2.4%	-0.2	-0.4	1.5
- Cc1cccc(NC(=O)CSc2nc3ccccc3c(=O)n2C)c1
 : ?	-0.6	2.4%	-0.3	0.1	5.2
- NNc1nc(-c2ccccc2)cc(-c2ccccc2O)n1
 : -13.7	-27.7	1.1%[38.3 µM]	0.9	-16.2	-4.8
- CC(=O)Nc1ccc(NC(=O)C(NC(=O)c2ccc(Cl)cc2)C(C)C)cc1 (configuration not stated)
 : -3.3	3.2	0.2%	-0.3	2.8	1.4
- Cc1ccc(C)c(N2CCN(C(=O)c3ccc(CS(=O)Cc4cccc(Cl)c4)o3)CC2)c1 (configuration not stated)
 : -5.2	-13.5	0.0%	-0.5	-8.5	-3.1
- Cc1cccc(C)c1OCC(=O)N=Nc1c(O)[nH]c2ccc(Br)cc12
 : -1.0	-0.4	12.5%[38.3 µM]	-0.4	-2.3	5.4
- COc1ccc(CN2CCN(Cc3ccc(C)cc3)CC2)c(OC)c1
 : 1.4	-6.0	1.4%	-1.5	-9.7	6.1
- COc1cc(NC(=O)c2cc(C(C)C)on2)c(OC)cc1Cl
 : -2.2	0.9	-1.5%	1.8	12.1	-8.2
- Cc1ccc(-c2cnc(-c3ccncc3)o2)cc1
 : 1.9	-14.3	-0.7%	1.5	4.5	3.1
- CCC(=O)N1CCC1(C)C(=O)Nc1ccc2nc(C)ccc2c1 (configuration not stated)
 : -0.3	3.4	4.1%	-0.8	-0.9	.
- COC(OC)c1ccnc(-c2ccc(OC(=O)c3ccc(F)cc3)cc2)n1
 : 1.4	12.1	1.4%	1.3	7.8	-6.1
- O=C(N/C(=C/c1cccc([N+](=O)[O-])c1)C(=O)N1CCCCC1)c1cccs1
 : -3.2	10.3	-3.3%	-1.0	-0.1	38.2
- Cc1nc(NCCc2ccccc2)c2nnn(Cc3ccccc3)c2n1
 : -4.9	.	5.6%	3.5	1.6	20.5
- O=c1oc2cc(O)ccc2cc1-c1nc2c(s1)CCc1ccccc1-2
 : 0.8	40.4	1.3%	83.4*	33.3	-6.3
- O=C(NCc1ccccc1)c1ccc(Cl)c(S(=O)(=O)N2CCCC2)c1
 : 1.3	0.4	1.0%	0.4	3.4	-11.9
- CCOc1ccc(/C=N/NC(=S)NC2CC3CCC2C3)cc1 (configuration not stated)
 : -7.4	-13.4	11.0%	-0.2	-26.1	13.2
- CCN1CCN(c2oc(-c3ccco3)nc2C#N)CC1
 : -5.1	-27.4	0.6%	0.0	-5.7	4.3
- O=C(c1ccccc1)C(Sc1ncn[nH]1)c1ccccc1 (configuration not stated)
 : -0.2	13.0	0.9%	-1.6	16.0	3.7
- N#Cc1ccc(CN2CCN(C(=O)CCNS(=O)(=O)c3ccc(F)c(Cl)c3)CC2)cc1
 : -1.5	-7.8	-0.4%	0.1	2.9	-5.8

Next part:
Order of values: D2 agonist	CtBP-E1A blk	PINK1 modulator	TRPML1 agonist	Six1-Eya2 blk	TRPML1 inh
- CCCCn1c2nc3ccccc3nc2c2c(=O)n(CCC(C)C)cnc21
 : -1.1	3.9	18.7%[38.3 µM]	0.5	0.9	9.4
- COc1ccc(CNC(=O)c2cccnc2)cc1
 : -2.3	7.7	-0.4%	0.2	-0.4	21.2
- CC(=O)Nc1c2c(nn1-c1ccccc1)CS(=O)C2 (configuration not stated)
 : -0.9	.	-1.6%	0.8	0.7	44.5
- CC(C)=CCC(C)(C)/C=N/NC(N)=O
 : -0.4	10.0	-0.8%	-0.2	-17.6	-5.6
- COC(=O)c1[nH]c2ccc(C)cc2c1NC(=O)Nc1ccc(OC)cc1
 : -3.3	-4.6	3.1%	-0.9	-6.7	6.8
- CCc1cccc(C)c1NC(=O)Cn1cc2c(n1)CCCCC2
 : .	.	0.5%	-0.5	.	-4.0
- Cc1cc(C)nc(N2CCC(C(=O)NCc3cccs3)CC2)n1
 : -2.4	2.0	1.5%[38.3 µM]	0.5	-0.4	14.8
- CCCCn1c(=O)[nH]c(=O)c2c1nc(-c1cc(Cl)c(OC)c(OC)c1)n2C
 : 1.4	1.1	12.9%	0.2	10.3	15.5
- CCCCCOC(=O)C1=C(C)Nc2nnnn2C1c1ccccc1Cl (configuration not stated)
 : 1.5	1.0	4.7%	2.2	-0.6	-8.7
- Cc1ccc(NC(=O)Nc2sc3nc4n(c(=O)c3c2C)CCC(C)CC4)c(Cl)c1 (configuration not stated)
 : .	.	3.1%	-0.9	.	-15.1

Screening results: PubChem BioAssay, National Center for Advancing Translational Sciences (NCATS)
